CapD inh: blocks the Bacillus anthracis CapD enzyme. purified CapD enzyme, fluorescence intensity read-out; stronger effect = lower value; some hits fall short of the stated cut. z-score (test concentration not listed). hit rate 0.23% among 140,000;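 active = z-score under -4 in either of two replicates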;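 note: stock transfer was 100 nL into about 40 µL; score is relative to mean and spread of the plate; one replicate is shown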
AID504770: E. coli YBA685 growth inhibition, screen for V. cholerae RctB inhibitors; E. coli YBA685 rctB-dependent plasmid, OD600 growth, 3 h; stronger effect = lower value; z-score (concentration not given with the values); hit rate 0.27% among 130,000; AID 504770;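 active = z-score under -2 on both plates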;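 note: wells of about 30 µL received 100 nL stock; score is relative to mean and SD of the test wells; the first replicate is given; strong numbers were not always called active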
Active calls of the source: *; · = not tested or not shown. The list is partial. The share of hits here may be higher or lower than overall.

Results follow in this order: AID504770 | CapD inh
> O=C(CCS(=O)(=O)c1ccc(Br)cc1)N1CC(=O)N(CCc2ccccc2)C(=O)C1
→ -0.5 | -0.155
> CCN(CC)C(=O)COCc1cc(-c2ccco2)on1
→ 1.05 | -0.025
> Cc1cc(-c2csc(N)n2)c(C)n1-c1ccc2c(c1)OCO2
→ -0.15 | ·
> COc1cc(/C=N/OCC(=O)NC2CC2)cc(Cl)c1OC
→ 0.65 | ·
> Cn1c(=O)c2sccc2n2c(CCCC(=O)NC3CCN(Cc4ccccc4)CC3)nnc12
→ -1.1 | 0.55
> CCC1CCCCN1C(=O)CSCc1ccco1 (stereo not drawn)
→ -0.25 | -0.55
> COC(C)n1cc(Br)c(=O)[nH]c1=O (stereo not drawn)
→ 0.25 | 0.69
> Cc1nc(Nc2ccccc2)sc1C(=O)c1cc2ccccc2s1
→ 0.25 | -0.605
> O=C(CNC(=O)C1CCCCC1)OCc1cc(=O)n2c(n1)sc1ccccc12
→ -0.9 | ·
> FC(F)(F)c1cc(Sc2ccc(Cl)cc2)nc(-c2ccccn2)n1
→ · | -0.69
> O=C(Cc1ccccc1)N1CCCc2ccccc21
→ -1.2 | -0.355
> CCOC(=O)c1c(CSc2ccc(Cl)cc2)oc2ccc(O)c(CN(C)C)c12
→ · | -0.29
> Cc1cc2nc(-c3cccnc3Cl)n(Cc3c(F)cccc3Cl)c2cc1C
→ · | 1.36
> Cc1nn(CCCN)cc1Cl
→ -0.25 | ·
> COc1cc(OC)nc(-c2sc3ccccc3c2OCC(=O)O)n1
→ · | 9.08
> CC1(C)NC(=O)N(CC(O)COc2ccc(N3C(=O)C4CC=CCC4C3=O)cc2)C1=O (stereo not drawn)
→ · | 0.015
> CC(=O)Nc1ccc(-c2ccc3nnc(C)n3n2)cc1
→ -1.85 | ·
> O=C1c2cccc3cccc(c23)C(=O)N1CCN1CCN(C(=O)C2(S(=O)(=O)c3ccccc3)CC2)CC1
→ · | 2.11
> Cc1cc(C)c2c(c1)/C(=c1/sc3n(c1=O)CN(c1cccc(Br)c1)CN=3)C(=O)N2
→ -0.6 | -0.125
> O=C1C2C3C=CC(C3)C2C(=O)N1c1ccc(-c2nc3ccccc3c(=O)o2)cc1 (stereo not drawn)
→ · | 1.15
> FC(F)(F)c1nc2ccccc2n1Cc1ccccc1
→ 1.3 | -1.17
> CCOC(=O)C1CCN(C(=O)c2ccccc2NS(=O)(=O)c2cccs2)CC1
→ -0.45 | ·
> CSc1cc(-c2ccc(Cl)cc2)c(C(=O)O)s1
→ 0 | -0.65
> Cc1ccc(-n2c(SCC(=O)NCCC3=CCCCC3)nc3n[nH]c(C)c3c2=N)cc1Cl
→ 0.9 | 2.37
> OC(CSc1cccc(Cl)c1)CN1CCN(c2ccc(F)cc2)CC1 (stereo not drawn)
→ · | -0.14
> O=C(NC1CCCCC1)N1CCC(c2nc3ccccc3[nH]2)CC1
→ -0.35 | 0.17
> O=C(CCSc1nnc(-c2ccc(O)cc2)o1)N1CCCCC1
→ 0.6 | ·
> COc1ccc(CCNC(=O)/C=C2\SC(=O)NC2=O)cc1
→ 0.05 | ·
> COc1cccc2c3c(c(C)nc12)CCS3
→ -0.8 | 19.9
> COc1ccc(-n2ccc3ccccc32)cc1
→ 0 | 2.54
> CC(=O)Nc1ccc(NC(=O)C2CCCN(c3cnccn3)C2)cc1 (stereo not drawn)
→ 0.35 | 5.97
> O=C1Cc2ccc(F)cc2CC1C1=Cc2ccc(F)cc2CC1 (stereo not drawn)
→ 1.45 | 16.9
> Cc1nc2ccc(Cl)cc2c2c1CCS2
→ 0.05 | 9.22
> OC1CCCc2c1[nH]c1ccc(C(F)(F)F)cc21 (stereo not drawn)
→ 0.45 | -0.705
> Cc1nc(C)c(Oc2ccc(Cl)cc2Cl)c(N2CCCCC2)n1
→ -0.05 | 9.77
> CCOC(=O)c1c(NC(C)=O)sc2c1CCC2
→ -0.1 | ·
> CCCCN(C)C1CCN(Cc2ccccc2)CC1
→ 1.7 | -0.81
> Cc1nn(CCC#N)c2nc(-c3ccc(C4CCCCC4)cc3)cc(C(=O)O)c12
→ 1.6 | ·
> COc1ccc(C2NC(=O)NC(C)=C2C(=O)OCCOc2ccccc2)cc1OC (stereo not drawn)
→ · | -0.375
> CN1C(=O)COc2ccc(C(=O)CSc3nc(-c4ccccc4)c(C#N)c(=O)[nH]3)cc21
→ -0.3 | 0.02
> O=C(O)c1ccc(NC(=O)c2ccc[n+]([O-])c2)cc1
→ 0.4 | 0.38
> CCOC(=O)c1cc(CN2CCOCC2)oc1-c1ccccc1
→ -0.2 | 2.14
> CCN(CC)C(=O)CSc1nnc2c(n1)[nH]c1ccccc12
→ · | -0.89
> NS(=O)(=O)c1ccc(CCNC(=O)CN2CCCc3ccccc32)cc1
→ 1.25 | ·
> CCN1CCN(CCNC(=O)Nc2ccc(Cl)cc2)CC1
→ -0.25 | -1.96
> O=C(CN1C(=O)S/C(=C\c2cccs2)C1=O)OCC(=O)c1ccc[nH]1
→ 0.1 | ·
> COCc1cc(=O)n2[nH]c(-c3cccs3)cc2n1
→ -1 | 17.3
> COc1ccccc1NC(=O)CO/N=C(\C)c1cccs1
→ -1.35 | ·
> CCCCOc1ccc(-c2nc(C=Nc3ccc(C)cc3Br)c(O)o2)cc1
→ · | -0.355
> CC1CCN(S(=O)(=O)c2ccc(NC(=O)c3ccc(C(C)(C)C)cc3)cc2)CC1
→ -0.05 | 1.41
> CCC(Sc1ncccc1C(=O)OC(C)C)C(=O)NCc1ccco1 (stereo not drawn)
→ -0.65 | 65.9
> c1ccc(CCSCc2nc3ccccc3[nH]2)cc1
→ -0.95 | 1.43
> O=C(NCCNCc1ccccc1)c1ccco1
→ 0.25 | ·
> COc1ccc(C2C(C(=O)O)c3ccccc3C(=O)N2Cc2ccc(Cl)cc2)cc1 (stereo not drawn)
→ 0.45 | -0.215
> CCOC(=O)c1c(CN2CCOCC2)n(C)c2ccc(O)cc12
→ 0.65 | 1.31
> Cc1cc(C)nc(SCc2nnc(SCc3ccccc3)n2Cc2ccco2)n1
→ 1.95 | ·
> Cc1ccc(NC(=O)CSCC(N)=O)cc1C
→ 0.6 | -0.04
> CC(=O)N1c2ccccc2N(Cc2ccccc2)C(=O)CC1C (stereo not drawn)
→ · | -0.415
> C=CCn1c(=O)c2ccc(C(=O)NCc3ccccc3)cc2n(Cc2ccccc2C#N)c1=O
→ -0.35 | 0.01
> CN(CCO)c1cc(N2CCCCC2)c2nonc2c1[N+](=O)[O-]
→ · | -0.725

Record cards, as listed above:
Listed for COc1cc(/C=N/OCC(=O)NC2CC2)cc(Cl)c1OC → AID504770: 0.65; CapD inh: ·
Listed for Cc1nc(C)c(Oc2ccc(Cl)cc2Cl)c(N2CCCCC2)n1 → AID504770: -0.05; CapD inh: 9.77
Listed for Cn1c(=O)c2sccc2n2c(CCCC(=O)NC3CCN(Cc4ccccc4)CC3)nnc12 → AID504770: -1.1; CapD inh: 0.55

(cont.)
Results follow in this order: AID504770 | CapD inh
> O=C(Nc1ccccc1)NN1CC(=O)N(c2cccc(C(F)(F)F)c2)CC1=O
→ -0.35 | -0.3
> O=C(NCc1cccs1)c1cc(C(=O)c2cccc(Cl)c2Cl)c[nH]1
→ · | 0.1
> O=c1c2ccccc2nc2ccc(N3CCCC4CCCCC43)nn12 (stereo not drawn)
→ -0.7 | -0.7
> COC(=O)c1sccc1NS(=O)(=O)c1cc(Cl)cc(Cl)c1
→ -0.85 | 0.71
> COC(=O)C1=C(O)c2cccc3c2N(CCC3)C1
→ -0.1 | 3.42
> Cc1ccccc1/C=N/n1c(C)cc(C)c(C#N)c1=O
→ -0.05 | 0.64
> COc1cccc(CNC2CCCC2)c1
→ -0.1 | 0.405
> O=C(NCC1(O)CCCCC1)OCc1cccc(OCc2ccccc2)c1
→ · | 0.17
> CSCCC(C(=O)Nc1cccnc1)N1C(=O)c2ccccc2C1=O (stereo not drawn)
→ -0.65 | ·
> FC(F)(F)c1cccc(Nc2ncnc(-n3cccc3)n2)c1
→ -0.95 | 0.485
> OC1(c2ccc(Cl)cc2)CSc2nc3cc(C(F)(F)F)ccc3n21 (stereo not drawn)
→ · | -0.07
> Cc1nn(-c2cccc(C(F)(F)F)c2)c2c1cnn2-c1nc2ccccc2o1
→ -0.2 | ·
> O=C(Sc1ccc(C(F)(F)F)cn1)/C(=C\c1cccs1)c1ccsc1
→ -0.85 | -0.65
> N#CC(C#N)=Cc1ccc(-c2cc(C(F)(F)F)cc(C(F)(F)F)c2)o1
→ · | -0.615
> CC(C)N1C(=O)CNC1=S
→ -0.75 | ·
> NC(=O)c1ccccc1Nc1cccc(C(F)(F)F)c1
→ -0.15 | -0.545
> COc1ccc(CCN2C(=O)CC(Sc3ccccc3C(=O)O)C2=O)cc1OC (stereo not drawn)
→ -0.5 | 0.425
> Cc1ccccc1Nc1nc2ccccc2s1
→ 0.15 | 0.18
> Cc1ccc(C)c(OCCCCn2nnc3ccccc32)c1
→ 1.6 | ·
> S=c1nc(-c2cccs2)[nH]c2ccccc12
→ -0.15 | ·
> CCOC(=O)C1CCCN(C(=O)c2ccc(OCC)cc2)C1 (stereo not drawn)
→ -0.3 | ·
> CC(Sc1nnc(N)s1)C(=O)NC(C)C1CC2CCC1C2 (stereo not drawn)
→ 0.55 | ·
> CCCS(=O)(=O)c1c(S(=O)(=O)CCC)c2ccc(C(C)=O)cn2c1C(=O)c1ccc(Br)cc1
→ · | -0.195
> CC12CCC3C4CCC(=O)C=C4CCC3C1CCC2=O (stereo not drawn)
→ · | 0.03
> CSc1nnc(CNC(=O)OC(C)(C)C)n1C
→ 1.05 | 0.39
> N#Cc1ccc(Oc2ccccc2)cc1C#N
→ -0.15 | -0.08
> Cc1cc2n(n1)CCCN2C(=O)CCC(=O)N1CCCCCC1
→ -0.25 | -0.765
> Cc1ccc(N=C2C(=O)N(C)c3ccccc32)cc1
→ -0.85 | 0.335
> FC(F)(F)c1ccccc1-n1c(-c2ccco2)n[nH]c1=S
→ 0.3 | 0.56
> COc1ccccc1NC(=O)CSc1ncnc2c1nnn2Cc1ccccc1
→ 0.65 | 0.5
> COc1ccc(CNC(=O)c2cc(C(=O)c3ccc(F)cc3)c[nH]2)cc1
→ · | -0.23
> O=C1OC(c2ccccc2)=N/C1=C\c1ccc(Cl)cc1Cl
→ · | 2.31
> CCOC(Cn1c(SCC#N)nc2ccccc2c1=O)OCC
→ -1.4 | -0.57
> COc1ccccc1CNC(=O)c1ccccc1N(C)S(C)(=O)=O
→ -0.9 | 0.495
> CC(C)c1ccc(C(=O)Nc2ccccc2C#N)cc1
→ 0.45 | 0.1
> O=C(c1ccccc1)N1N=C(C(F)(F)F)CC1(O)c1cccc(Br)c1 (stereo not drawn)
→ · | -0.005
> CCN(CC)C(C(=O)O)c1ccccc1 (stereo not drawn)
→ 0.6 | ·
> CN(C)/C=N/c1nnc(/C(C#N)=C/c2ccc(Cl)cc2Cl)s1
→ · | 0.64
> O=C(NC(=O)c1cn2cc(C(F)(F)F)cc(Cl)c2n1)Nc1ccc(Cl)cc1
→ -0.85 | 0.54
> O=C(NNc1nc2ccccc2s1)Nc1ccccc1
→ 0.25 | ·
> O=C(CCn1c(=O)oc2ccccc21)Sc1ccc(Cl)cc1Cl
→ 1 | 9.69
> CN(C)/C=C/C=C1\CCc2ccccc2C1=O
→ -0.9 | -0.79
> Cc1cc(C)cc(CC2CC(=O)N(CCc3ccc4c(c3)OCO4)C2=O)c1 (stereo not drawn)
→ 0 | 0.125
> CCN(CC)S(=O)(=O)c1ccc(-n2c(=O)c(C(C)C)c(C)n2C)cc1
→ 0.4 | ·
> CCOC(=O)c1cn(-c2ccc(Cl)cc2)nc1C(F)(F)F
→ -0.05 | 0.5
> COc1ccc(CC(=O)Nc2ccccc2N2CCOCC2)c(OC)c1
→ -0.45 | ·
> CC(=O)Nc1sc2c(c1CN1CCN(c3ccccn3)CC1)CCCC2
→ -0.35 | -0.065
> CCOC(=O)C1=C(O)/C(=C/c2ccc(OC)cc2)SC1=Nc1ccccc1
→ · | -0.395
> O=C(CN1C(=O)C(c2ccccc2)Oc2cccnc21)NCCCN1CCCCC1 (stereo not drawn)
→ 0.15 | 0.05
> Cc1noc(C)c1C(=O)OCC(=O)N1CCCC1=O
→ -3.55 | ·
> c1cncc(-c2noc(C3CCNCC3)n2)c1
→ · | 0.26
> CCn1c(SCc2cc(=O)oc3cc(NC(C)=O)ccc23)nnc1-c1ccccc1
→ -0.65 | ·
> Cc1ccccc1C(=O)N/N=C/c1ccccc1
→ -0.6 | ·
> CCC(=O)c1c[nH]c(C(=O)NCc2cccnc2)c1
→ 1.35 | 0.04
> N#Cc1c(NC(=S)Nc2ccccc2)sc2c1CCC2
→ 0.35 | -0.725
> O=C(O)CC1Sc2ccccc2NC1=O (stereo not drawn)
→ -1.25 | -0.495
> CCNc1nc(=S)[nH]c2ccccc12
→ -0.05 | ·
> O=C(Nc1ccc(Br)cc1)C12CCN(CC1)Cc1ccccc12
→ -0.7 | 0.585
> Cc1cc(C)c(Nc2nnns2)c(C)c1
→ · | 0.2
> Cn1nc(C(F)(F)F)cc1C(=O)Nc1ccc(Cl)cc1
→ 0.75 | 0.635

Remaining list, next part.
Results follow in this order: AID504770 | CapD inh
> CCc1cccc(NC(=O)C2c3ccccc3C(=O)N(C)C2c2cn(C)c3ccccc23)c1 (stereo not drawn)
→ 0.2 | -0.175
> COc1ccc(-n2c(C)nc3ncnc(-c4ccccc4)c32)cc1
→ · | -0.465
> COC(=O)c1ccc2c(c1)N(C)S(=O)(=O)/C(=C\N(C)C)C2=O
→ -0.3 | 0.095
> CC(=O)N(CN1C(=O)C2CC=CCC2C1=O)c1ccccc1 (stereo not drawn)
→ 1.25 | -0.04
> COc1ncccc1C(=O)Nc1ccc(F)cc1F
→ -1.2 | 0.14
> CCOC(=O)CSc1sc(C(=O)OCC)c(-c2cccs2)c1C#N
→ 0 | 0.445
> N#Cc1ccc(COC(=O)CCSc2ccccc2)cc1
→ -0.25 | ·
> CCc1ccc(NC(=O)N(Cc2c[nH]c3ccccc23)C(C)C)cc1
→ 0.35 | -0.7

Screening results (PubChem)
